# Prx2 Sm inh – Schistosoma mansoni Prx2 inhibition; actives 0.07% (n = 65,000); S. mansoni Prx2 activity coupled to TGR/GSH (TGR is thioredoxin glutathione reductase), NADPH fluorescence loss, qHTS; some inactives read as strong as hits; Potency, µM; active means full or partial inhibition curve with a strong effect at the top dose; inconclusive means weaker partial or single-point curve; inactive means no accepted curve; also: series up to 57 µM; many of its hits are not listed in these tables
#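 Coupled assay in which S. mansoni TGR passes NADPH reducing equivalents via glutathione to Prx2, which reduces H2O2. Compounds were preincubated 15 min at room temperature with 25 nM TGR/50 nM Prx2 mix. Kinetic NADPH fluorescence loss (ex 365/em 450 nm) was monitored.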
# Anthrax LT inh – blocks cellular internalization of anthrax lethal toxin | Cells, anthrax lethal toxin internalization, FRET ratio (460/530) | Potency, µM (titrated, usually from 40 µM), without a hit: top-dose activity change, negative = inhibition, actives largely listed as inhibitors | actives 0.67% (n = 70,000) | AID 912; active = well fitted falling ratio curve with the 530 nm signal flat; inconclusive = other ratio curves, or a change in one channel alone; inactive = flat curves in the ratio and both channels; the % refers to the ratio; also: % is scaled to controls: 0 for no effect and ±100 for the full control effect; nearly all actives have a fitted effect of over 50% in size; tested in ME-180 cells; beta-lactamase reporter
# Numbers without * were called inactive; ? = inconclusive; nt = not tested or not shown; & = joins results of further samples; [ ] = dose if it differs, or a comment. Potency is read from the fitted curve at half-maximal effect. This is a subset; rates above refer to the full screens.
# Start of the listing, in advance, 4 compounds:
# Results follow in this order: Prx2 Sm inh	Anthrax LT inh
- Cc1cc(Cl)ccc1OCC(=O)Nc1nc(N)nc(N)n1
  >57	0%[8 µM]
- Cn1cnc2c(N3CCCCC3)nccc21
  >57	-5%
- c1ccc(-n2c(-c3ccco3)nnc2N2CCOCC2)cc1
  >57	-1%
- CCN1CCCC1CNC(=O)c1csc2c1CCCC2 (centres undefined)
  >57	-13%

# This part in full (from the top)
# Results follow in this order: Prx2 Sm inh	Anthrax LT inh
- Cc1cc(Cl)ccc1OCC(=O)Nc1nc(N)nc(N)n1
  >57	0%[8 µM]
- Cn1cnc2c(N3CCCCC3)nccc21
  >57	-5%
- c1ccc(-n2c(-c3ccco3)nnc2N2CCOCC2)cc1
  >57	-1%
- CCN1CCCC1CNC(=O)c1csc2c1CCCC2 (centres undefined)
  >57	-13%
- COC(=O)c1cccc(OCC(O)Cn2cnc3cc(C)c(C)cc32)c1 (centres undefined)
  >57	2%
- CC1CN(C(=O)N2c3ccccc3Sc3ccccc32)C(C)CC1=O (centres undefined)
  >57	-23%
- O=C(CN1CCOCC1)Nc1cccc(Cl)c1Cl
  >57	9%
- CC(=O)N(CCc1ccccc1C)Cc1cc2cc3c(cc2[nH]c1=O)OCO3
  >57	5%
- COc1ccc(OC)c(N(CC(=O)Nc2ccccc2)S(C)(=O)=O)c1
  >57	-5%
- CCOC(=O)SC1=N/C(=C\c2ccc(N(C)C)cc2)C(=O)S1
  >57	-4%

# Three entries already listed, arranged by count of non-hydrogen atoms, largest number first.
# Results follow in this order: Prx2 Sm inh	Anthrax LT inh
- CC(=O)N(CCc1ccccc1C)Cc1cc2cc3c(cc2[nH]c1=O)OCO3
  >57	5%
- COc1ccc(OC)c(N(CC(=O)Nc2ccccc2)S(C)(=O)=O)c1
  >57	-5%
- O=C(CN1CCOCC1)Nc1cccc(Cl)c1Cl
  >57	9%

# Following part.
# Results follow in this order: Prx2 Sm inh	Anthrax LT inh
- O=C(NCc1ccccc1Cl)C1CCN(S(=O)(=O)N2CCC3(CC2)OCCO3)CC1
  >57	4%
- CCSc1nnc2c(n1)OC(C)(C)Nc1ccccc1-2
  nt	3%
- CC(=O)N(c1c(C)n(C)n(-c2ccccc2)c1=O)C1(C(=O)NC2CCCC2)CCCCC1
  >57	1%
- COCCNc1ncnc2ccc(-c3cccc(NS(C)(=O)=O)c3)cc12
  >57	?
- Nc1cccc(-n2nncc2-c2ccc(Cl)cc2)c1
  >57	2%
- Cc1ccccc1S(=O)(=O)Cc1ccc(C(=O)NCCN2CCCCC2C)o1 (centres undefined)
  >57	-12%
- Cc1nn2c(-c3cccc(NC(=O)CSc4nc5ccccc5o4)c3)nnc2c2ccccc12
  >57	2%
- CCCc1nc2c(sc3nc4c(cc32)COC(C)(C)C4)c(=O)n1Cc1ccco1
  >57	nt
- CCOC(=O)C1CCN(C(=O)CCc2nc3ccccc3[nH]2)CC1
  >57	13%
- CN1C(=O)Cc2cc(S(=O)(=O)N3CCOCC3)ccc21
  >57	?
- O=c1nc(-c2ccccc2)n(-c2ccccc2)c2ncccc12
  >57	-4%
- COc1ccc2c(C=Nc3c(C)n(C)n(-c4ccccc4)c3=O)c(O)n(Cc3ccco3)c(=O)c2c1
  nt	-13%
- C[C@@H](CN(C)C)CN1c2ccccc2CCc2ccccc21
  >57&>57	?
- CCc1nnc(NC(=O)Cn2ccc(C(F)(F)F)n2)s1
  >57	-5%
- CC(=O)N1CCc2cc(Br)cc(S(=O)(=O)NCc3ccccn3)c21
  >57	6%
- Cc1cc(Nc2ccc3c(c2)OCCO3)n2nc(C)nc2n1
  >57	25%
- CCc1nnc(NC(=O)CSc2nnc(-c3c[nH]c4ccccc34)n2CCOC)s1
  >57	?
- CN(C)c1ncc2nc(-c3ccccc3)c(=O)n(Cc3cccs3)c2n1
  >57	?
- COc1ccc2c(CC(=O)Nc3ccc(OC)c(NS(=O)(=O)c4ccc(F)cc4)c3)coc2c1
  >57	10µM*
- O=C(CN1CCOc2ccccc21)NC1CCCCCCC1
  >57	-8%
- CC(C)(C)c1ccc(OCC(=O)NCc2ccco2)c(Br)c1
  >57	-1%
- COC(=O)Nc1ccc(C)cc1NC(=O)OC
  >57	-2%
- Cc1ccc(C)c(NC(=O)Cn2nnc(C(=O)Nc3c(C)cccc3C)c2N)c1
  >57	4%
- O=S(=O)(Nc1nccs1)c1ccc([As](=O)(O)O)cc1
  ?	-18%[8 µM]
- c1ccn2cc(CSc3nnc4ccccn34)nc2c1
  >57	4%
- c1ccc(N(c2ccccc2)c2nc(-n3ccnc3)nc(-n3ccnc3)n2)cc1
  >57	-22%
- COc1ccc(C2c3c(-c4cc(Cl)c(C)cc4O)n[nH]c3C(=O)N2Cc2cccnc2)cc1OC (centres undefined)
  >57	?
- N#Cc1cccc(-c2nc3cnc(N4CCNCC4)nc3n(C3CC3)c2=O)c1
  >57	-3%
- Cc1ccc2c(c1)nnn2C1CCN(CC(=O)NCCc2ccccc2)CC1
  >57	-8%
- CCOC(=O)C(C)Oc1cccc2c(=O)n(CC(=O)NCc3ccc4c(c3)OCO4)ccc12 (centres undefined)
  >57	-3%
- CC1(C)NC(=O)N(CC(O)CN2CCOCC2)C1=O (centres undefined)
  >57	8%
- COC(=O)COc1ccc2oc(=O)cc(C)c2c1
  >57	-4%
- Cn1c(SCC(=O)N2CCOCC2)nnc1-c1cnccn1
  >57	?
- Cc1c(C(=O)N2CCCCC2)sc(NC(=O)C2CC2)c1C#N
  >57	4%
- CCCn1c(=O)c(C(=O)Nc2nnc(CC)s2)c(O)c2ccccc21
  >57	-1%
- O=C1N(CN2C(=O)C3(OCCO3)c3ccccc32)c2ccccc2C12OCCO2
  >57	-7%
- COc1cccc(N2CCCn3c2nc2c3c(=O)n(CCN3CCOCC3)c(=O)n2C)c1
  >57	-8%
- CCN1CCN(Cc2cc(=O)oc3ccc(Cl)cc23)CC1
  >57	2%
- CCCCC12CN3CC(C)(CN(C1)C31C(=O)N(C)c3ccc(C)cc31)C2=O (centres undefined)
  >57	-6%
- CCOC(=O)N1CCN(C(=O)COc2ccc(Br)cc2)CC1
  nt	1%
- C[C@@H](C(=O)Nc1ccc2ccccc2c1)[C@@H]1C[C@@]1(C)[C@@H](NC(=O)c1ccncc1Cl)c1ccccc1
  >57	?
- CCc1ccccc1NC(=O)CSc1nc2c(c(-c3ccco3)c1C#N)CCCC2
  >57	9%
- CC(C)CCN1C(=O)c2ccc(C(=O)OCn3nnc4ccccc4c3=O)cc2C1=O
  >57	1%
- COc1ccccc1NC(=O)CN(Cc1ccco1)C(=O)c1cccs1
  >57	1%
- C=CCC1c2cccc(C(=O)O)c2C(=O)N1c1cccc(C)c1 (centres undefined)
  >57	2%
- O=[As](O)(O)c1ccc(NCc2ccccc2)cc1
  >57	-7%[8 µM]
- Cc1nonc1NC(=O)CSc1ccc(-c2ccccc2)nn1
  >57	0%
- COc1ccc(CCNC(=O)Cn2c(=O)oc3ccccc32)cc1OC
  >57	-2%
- Cn1c(Cn2c(=O)sc3ccccc32)nnc1SCC(=O)Nc1ccc(F)cc1
  >57	-6%
- CCn1c(Cn2nnc(-c3ccccc3)n2)nnc1SCC(=O)Nc1cccc(C(C)=O)c1
  >57	6%

# Continuation:
# Results follow in this order: Prx2 Sm inh	Anthrax LT inh
- COc1cccc(C2CC(c3c(Cl)cccc3Cl)n3nc(N)nc3N2)c1 (centres undefined)
  >57	3%
- Cc1ccc(-c2cn3nc(C)c(C)nc3n2)cc1
  >57	?
- O=C(C1COc2ccccc2O1)N1CCc2ccccc21 (centres undefined)
  >57	-24%
- CCCOCC(C)O (centres undefined)
  nt	-11%
- Cc1cccc(N2CCN(C(=O)c3ccc(NC(=O)C4CCCO4)cc3)CC2C)c1 (centres undefined)
  >57	7%
- CCC(=O)N1CCN=C1SCc1ccc(F)cc1
  >57	8%
- CCOC(=O)N1CCN(S(=O)(=O)c2ccc(C(=O)Nc3nc4ccc(F)cc4s3)cc2)CC1
  >57	?
- N#Cc1ccccc1Cn1c(=O)n(Cc2ccc(C(=O)NCc3ccco3)cc2)c(=O)c2sccc21
  nt	12%
- COc1ccc(NC(=O)c2ccccc2Cl)cc1NC(=O)CN1CCOCC1
  >57	-9%
- CCOC(=O)N1CCN(C(=O)CCCOc2ccccc2)CC1
  >57	1%
- C=Cc1ccccc1Cl
  nt	-5%
- OCc1nc2ccccc2n1CC(O)Cn1ccc2ccccc21 (centres undefined)
  >57	-6%
- O=C(c1nc2ccc([N+](=O)[O-])cc2[nH]c1=O)[C@@H](O)c1ccc2c(c1)OCO2
  >57	0%[8 µM]
- c1ccc2c(c1)CNC1(CCCCC1)C2
  >57	-5%
- COc1ccc(-c2nnc(SCC(=O)N3CCc4ccccc4C3)o2)cc1
  >57	-2%
- O=C(COc1ccc(S(=O)(=O)NC2CCCCC2)cc1)NCc1ccccn1
  >57	-6%
- Cn1c(N)c(C(=O)COC(=O)Cc2ccsc2)c(=O)n(C)c1=O
  >57	-1%
- CCOc1ccccc1C1C(C(=O)Nc2ccccc2OC)=C(C)Nc2nnnn21 (centres undefined)
  >57	-5%
- Cc1oc2cc3oc(=O)c4c(c3cc2c1C)CCC4
  >57	-2%
- C=CCn1c(SCC#N)nc2ccccc2c1=O
  >57	-23%
- CSC1(SC2=NCCN2)SC2(NCCN2)S1
  >57	-10%[8 µM]
- COc1cccc(NC(=O)[C@@H]2CCCN2C(=O)C2CCN(S(=O)(=O)c3ccc(C)cc3)CC2)c1
  >57	?
- N#CCCCCN1c2cccc3cccc(c23)S1(=O)=O
  >57	-6%
- Cc1cccc(-n2nc3c(c2NC(=O)c2ccc(S(=O)(=O)N4CCOCC4)cc2)CSC3)c1C
  >57	-10%
- Cc1ccc(S(=O)(=O)n2nc(OC(=O)c3cccs3)cc2N)cc1
  >57	-13%
- COC(=O)NCc1cc2cc(Cl)ccc2[nH]1
  >57	?
- O=C1CS[C@@H](c2ccccc2Cl)c2cc(Cl)ccc2N1
  >57	?
- COc1ccc(OCC(O)CNCc2ccco2)cc1 (centres undefined)
  nt	4%
- CC1(C)NC(=O)N(CN2C(=O)NC(C)(C)C2=O)C1=O
  >57	2%
- O=C(c1ccc(Cn2cc(Cl)cn2)o1)N1CCN(Cc2ccc3c(c2)OCO3)CC1
  >57	-6%
- Cc1cccn2c(=O)c3cc(C(=O)NCCCn4ccnc4)n(C)c3nc12
  >57	?
- Nc1nc(SCc2ccccn2)c2ncn(C3CCCC3)c2n1
  >57	3%[8 µM]
- C=CCOc1cccc(C2/C(=C(/O)c3ccccc3)C(=O)C(=O)N2CCCN2CCOCC2)c1 (centres undefined)
  >57	9%
- O=C(CSc1nnc(Cc2cc(=O)[nH]c(=O)[nH]2)n1-c1ccccc1)NCC1CCCO1 (centres undefined)
  >57	1%
- CC(=O)c1ccc(Nc2nc(C)nc3c2oc2ccccc23)cc1
  >57	-14%
- Cc1ccc(SCCNC(=O)CN(c2ccc3c(c2)OCO3)S(C)(=O)=O)cc1
  >57	6%
- Nc1ccc(-c2nc3c(Cl)cc(N)cc3[nH]2)cc1
  >57	4%
- CN1CCC(OC(=O)C23CCC(C)(C(=O)O2)C3(C)C)CC1 (centres undefined)
  >57	2%
- O=C(CCCN1CCC2(CC1)C(=O)NCN2c1ccccc1)c1ccc(F)cc1
  >57&>57&>57	?
- Cc1c(C(=O)N(Cc2cccs2)C2CCS(=O)(=O)C2)oc2ccccc12 (centres undefined)
  >57	?
- CCOC(=O)COc1ccc(C2NC(C(=O)O)CS2)cc1 (centres undefined)
  >57	-5%
- COc1cc(N)cc(NC(=O)c2ccncc2)c1
  >57	4%
- O=C(Nc1ccccc1)c1ccc(NCCN2CCOCC2)c(S(=O)(=O)N2CCOCC2)c1
  >57	-6%
- CCCSCCCNC(=O)c1cc2c(s1)CS(=O)(=O)C2
  >57	-9%
- O=C(CN1C(=O)NC2NC(=O)NC21)NC1CCCCC1 (centres undefined)
  >57	2%
- Cc1ccc2nc(NC3=NCN(CCN4CCOCC4)CN3)nc(C)c2c1
  >57	-9%
- CS(=O)(=O)Nc1cccc(-c2nccc(NCc3ccccc3)n2)c1
  >57	2%
- CCNc1nc(SC(C)C(=O)OC)nc(N2CCOCC2)n1 (centres undefined)
  >57	-16%
- COc1ccc(CC(C)N2CCN(c3ccccc3OC)CC2)cc1OC (centres undefined)
  nt	?
- COc1cc(CCN)ccc1O
  >57	-3%

# (list continues)
# Results follow in this order: Prx2 Sm inh	Anthrax LT inh
- O=C(Cc1c(F)cccc1Cl)Nc1cccnc1
  >57	-14%
- CN1CCN(C(=O)C23CC4CC(CC(C4)C2)C3)CC1
  nt	3%
- O=C(O)c1ccccc1[N+](=O)[O-]
  nt	4%
- CCOC(=O)C1=C(C)NC(=O)N(C(C)=O)C1c1ccc(Cl)cc1 (centres undefined)
  nt	?
- CNc1nc(-c2cccnc2)nc2ccccc12
  >57	4%
- O=C(O)c1ccc(Cl)cc1Cl
  nt	5%
- O=C(CCCN1C(=O)c2ccccc2C1=O)Nc1ccc(S(=O)(=O)N2CCOCC2)cc1
  >57	?
- COCCn1c(SCC(=O)OCc2ccccc2)nc2c1c(=O)[nH]c(=O)n2C
  >57	1%
- COc1cccc(N)c1
  nt	3%
- Nc1nonc1-c1noc(N2CCCCC2)n1
  >57	?

# Assay outcomes as filed in PubChem.
